PV pol inh: poliovirus RNA polymerase inhibition. 150,000 tested, 0.66% active. % elongation, % (compound at 16.7 µg/mL). AID 588519. P03300. poliovirus polymerase elongation, fluorescence polarization; stronger effect = lower value; in the data active = % elongation below about 90%; note: some results filed as inactive read as strong as hits
Target sequence (P03300 1749-2209 limits assumed): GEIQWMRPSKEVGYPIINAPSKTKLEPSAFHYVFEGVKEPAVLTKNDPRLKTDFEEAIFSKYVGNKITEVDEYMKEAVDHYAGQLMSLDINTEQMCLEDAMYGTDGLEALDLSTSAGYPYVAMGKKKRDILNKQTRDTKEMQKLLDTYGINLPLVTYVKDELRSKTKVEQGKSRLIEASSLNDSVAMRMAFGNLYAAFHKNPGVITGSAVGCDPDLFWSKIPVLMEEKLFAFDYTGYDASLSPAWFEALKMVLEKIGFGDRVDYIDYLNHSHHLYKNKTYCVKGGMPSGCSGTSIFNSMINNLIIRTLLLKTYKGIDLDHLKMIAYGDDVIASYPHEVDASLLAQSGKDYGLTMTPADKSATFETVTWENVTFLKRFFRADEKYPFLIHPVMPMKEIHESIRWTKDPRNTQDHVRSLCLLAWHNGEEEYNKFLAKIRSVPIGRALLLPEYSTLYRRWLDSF
MenB inh: inhibitors of Mycobacterium tuberculosis MenB enzyme | MenB enzyme assay, absorbance read-out; some hits fall short of the stated cut | 100,000 tested, 0.43% active | inhibition, %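 (about 12 µg/mL by stock and volumes)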 | AID 540299;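 active = mean of two replicates above 30%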;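 note: 0% = no compound and 100% = wells with inactive enzyme; the first replicate is given; strong numbers were not always called active; inactives centre near -10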
MbtI inh: MbtI salicylate synthase inhibition. P9WFX0. purified MbtI enzyme, fluorescence intensity read-out. inhibition, %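 (about 17 µg/mL by stock and volumes)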. 100,000 tested, 0.89% active;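 active = above 50% in both replicates, above 80% if mildly self-fluorescent; inactive = the rest, strongly fluorescent compounds included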;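 note: 0% = mean of negative and 100% = mean of positive controls; one replicate is shown; some compounds called inactive have numbers as strong as hits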
Target sequence (P9WFX0 whole entry, looked up): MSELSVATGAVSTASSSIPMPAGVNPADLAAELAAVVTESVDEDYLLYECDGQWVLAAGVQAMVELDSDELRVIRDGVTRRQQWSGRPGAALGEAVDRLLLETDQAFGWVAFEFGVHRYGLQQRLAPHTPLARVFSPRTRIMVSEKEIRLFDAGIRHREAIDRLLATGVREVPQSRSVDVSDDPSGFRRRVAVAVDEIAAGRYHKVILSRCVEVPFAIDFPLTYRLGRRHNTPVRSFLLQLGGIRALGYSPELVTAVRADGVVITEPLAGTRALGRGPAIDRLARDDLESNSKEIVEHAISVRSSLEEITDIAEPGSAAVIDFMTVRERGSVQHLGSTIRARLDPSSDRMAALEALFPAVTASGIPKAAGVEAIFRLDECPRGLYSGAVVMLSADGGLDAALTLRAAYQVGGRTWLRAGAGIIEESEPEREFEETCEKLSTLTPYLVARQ
PV pol inh intensity: recorded beside PV pol inh, whose call it bears; % elongation; measured here: total intensity read-out; formula for this scale not given here;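 total fluorescence in place of polarization; lower means less elongation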
The depositor's hits bear a star; x = not tested or not shown; & = joins results of further samples. The order is random (roughly 2% active in at least one column).

item	SMILES	MenB inh	PV pol inh	MbtI inh	PV pol inh intensity
1	CCn1c(CNC(=O)Cc2ccc(OC)cc2)nnc1SCCOc1ccccc1	6	99	-6	100
2	O=C(Nc1ccccc1)Nc1nc(=O)c2ccccc2s1	-3	105	x	104
3	CC(C)CNC(=S)N(C)N	-24	105	6	100
4	O=C1COc2cc(S(=O)(=O)N3CCCCCC3)ccc2N1	-22	104	-3	104
5	CCOC(=O)C1CCN(c2csc3ccccc3c2=O)CC1	-91	100	9	103
6	NC(=O)CSc1nnc(CSc2nc3ccccc3s2)n1Cc1ccccc1	-18	103	-2	106
7	CN(C)c1nc(N)nc(-c2ccco2)n1	-1	98	9	100
8	O=C(O)CN(Cc1ccccc1)C(=O)C(F)(F)F	x	102	-10	106
9	CC(=O)Nc1cccc(NC(=O)C2CC(=O)N(C3CCCCC3)C2)c1 (stereo unspecified)	-7	101	14	102
10	N#C/C(=C\c1ccccc1)C(=O)N1C(=O)c2ccccc2S1(=O)=O	-26	96	4	84
11	CCn1c(C)nc2cc(C(=O)OC)ccc21	x	102	-7	101
12	COC(=O)[C@H](C)NC(=O)c1cccc(C)c1	5	105	-1	106
13	N#Cc1cccc(C(=O)NCc2ccccc2)c1	5	102	-6	108
14	Cc1ccc2nc(SCC(=O)N(C)c3ccccc3)nc(=O)n2c1	-4	98	-7	103
15	Cc1cc(C)n(-c2ccc(CSc3nnc(C4CC4)n3Cc3ccccc3)cc2)n1	-10	103	-11	107

Results in MenB inh, MbtI inh and PV pol inh intensity (three entries from above):
nr | Molecule | MenB inh | MbtI inh | PV pol inh intensity
7 | CN(C)c1nc(N)nc(-c2ccco2)n1 | -1 | 9 | 100
2 | O=C(Nc1ccccc1)Nc1nc(=O)c2ccccc2s1 | -3 | x | 104
8 | O=C(O)CN(Cc1ccccc1)C(=O)C(F)(F)F | x | -10 | 106

New compounds follow.
item	SMILES	MenB inh	PV pol inh	MbtI inh	PV pol inh intensity
16	COC(=O)C(C(=O)OC)c1nc2ccccc2nc1Cl	4	99	-12	109
17	O=[N+]([O-])O[C@H]1CO[C@H]2[C@@H]1OC[C@H]2O[N+](=O)[O-]	-1&4	100&99	-11&2	100&103
18	CC1CCc2nc(NNC(=O)CN3CCCC3)nc(C(F)(F)F)c2C1 (stereo unspecified)	-12	100	4	101
19	CCCc1cc(=O)[nH]c(SCC(=O)N2CC3(C)CC2CC(C)(C)C3)n1 (stereo unspecified)	12	104	17	98
20	CCN(CC)S(=O)(=O)c1cccc(C(=O)Nc2ccccc2)c1	-55	102	2	102
21	Cc1ccc(-c2ccc(=O)n(CC(=O)NCCN3CCCCC3C)n2)cc1 (stereo unspecified)	12	102	83	95
22	COc1ccc(C2c3cc(OC)c(OC)cc3CC(=O)N2NC(=O)c2ccco2)cc1 (stereo unspecified)	10	100	-4	104
23	Cc1csc(=O)n1CC(=O)NC(C)C12CC3CC(CC(C3)C1)C2 (stereo unspecified)	5	108	-3	111
24	CCCN(Cc1cccs1)C(=O)Nc1ccc(OC)cc1	-8	102	-14	105
25	CC1(C)Cc2c(sc3ncn4nc(-c5ccccc5)nc4c23)C(C)(C)N1	-3	101	-3	97
26	CC(C)NC(=O)CSCc1cnn(-c2ccccc2)c1-n1cccc1	-9	105	0	108
27	CCCNC(=O)c1ccc2c(c1)N(Cc1ccc(F)cc1)CCS2	-2	104	80	99
28	CC(OC(=O)C12CC3CC(CC(O)(C3)C1)C2)C(=O)N(C)c1ccccc1 (stereo unspecified)	-28	103	-8	97
29	Cc1cc2c(cc1S(=O)(=O)NCc1ccccc1)n(C)c(=O)c(=O)n2C	8	102	8	102
30	COc1cccc(CN2CCc3nc(Nc4ccccc4)ncc3C2)c1	-19	102	-47	103
31	CCn1c(-c2cccs2)c(CNC(=O)Nc2ccc3c(c2)OCCO3)c2ccccc21	-20	108	-1	104
32	Cc1ccc2cc(CCNC(=O)C34CC5CC(CC(C5)C3)C4)c(=O)[nH]c2c1C	-18	102	-3	103
33	CCOc1cc(C(=O)O)c(N)cc1OC	12	87*	100	99*
34	Cc1cc(Sc2ccccn2)c2ccccc2n1	2	99	x	95
35	CN(C)C(=O)COc1ccc2c(-c3ccccc3)cc(=O)oc2c1	x	102	17	104
36	O=C(CCn1[nH]c(=O)ccc1=O)Nc1ccc(-c2cc3ccccc3o2)cc1	-4	102	13	103
37	O=S(=O)(c1cccc(C(F)(F)F)c1)N1CCN(S(=O)(=O)c2cccc(C(F)(F)F)c2)CC1	-2	101	-8	102
38	COC(=O)c1c(C(C)(C)C)oc2c1cc(NS(=O)(=O)c1ccc(C)cc1)c1ccccc12	-4	102	6	98
39	O=C(COC(=O)COc1ccc(Br)cc1)NC1CCCC1	x	103	0	98
40	CC1N=C(N)C(c2nc3ccccc3n2C)=C1O (stereo unspecified)	-8	107	22	106
41	Cc1cccc(N2CCN(C(=O)CCC(=O)O)CC2)c1C	-14	102	-10	106
42	CCN(CC)C(=O)c1ccc(NC(=O)Nc2ccccc2OC)cc1	2	106	-12	107
43	COC(=O)c1ccc(NC(=S)NC(=O)C2CC2)cc1	-14	99	-9	104
44	CCC1=C(c2ccc(C)cc2)S(=O)(=O)N=C1N1CCC(C(=O)N2CCC(C)CC2)CC1	10	100	6	96
45	CCc1ccc(-c2nc(CSCC(=O)NCc3ccco3)c(C)o2)cc1	-23	100	6	102
46	COc1ccc(OCC(=O)Nc2c[nH]c(=O)[nH]c2=O)cc1	0	103	x	113
47	O=C(O)c1cccc(Nc2ccnc3cc(Cl)ccc23)c1	-9	100	-24	103
48	CCOc1ccc(/C=N/NC(=O)c2cccnc2)cc1CN1CC2CC(C1)c1cccc(=O)n1C2 (stereo unspecified)	15	100	4	102
49	Cc1c(Cc2ccccc2)sc(/N=C/c2ccc(Cl)cc2)c1C(N)=O	-8	97	x	105
50	CCOC(=O)c1ccc2c(c1)nc(SC/C(O)=C(\C#N)c1nc3ccccc3[nH]1)n2CC	-9	117	-24	146
51	Cc1onc(-c2ccccc2)c1C(=O)Nc1cccnc1	-16	107	x	114
52	Cc1ccc(C)n1-c1nn(S(=O)(=O)c2cccc3cccnc23)c2cccc(F)c12	-15	103	-10	105
53	CCCCNC(=O)C1CCN(Cc2ccccc2OCC)CC1	-3	102	-1	102
54	Cc1ccc(C)c(OCCC(=O)N2CCN(S(=O)(=O)c3cc(F)ccc3F)CC2)c1	-6	101	10	97
55	COC(=O)C1Cc2ccccc2CN1 (stereo unspecified)	x	106	2	99
56	COc1ccc(CCn2nnnc2CN2CCN(Cc3ccccc3)CC2)cc1OC	-20	102	-3	100
57	CCc1ccc(NC(=O)COC(=O)CC2CCCC2)cc1	x	99	-12	95
58	CC12CCC(=O)N1C(C(=O)OCn1nnc3ccccc3c1=O)CS2 (stereo unspecified)	12	102	72	108
59	O=S(=O)(c1ccc(NC(=S)NCc2ccco2)cc1)N1CCCC1	-10	99	31	102
60	N#Cc1c(N2CCCC2=O)sc2c1CCC2	x	103	-13	99
61	CCc1ccc(C(=O)OCC(=O)NC2CCCC2)cc1	-11	103	10	106
62	Cn1c(O)c(C=Nc2ccc(Br)cc2)c2ccccc21	7	103	3	107
63	O=C(Cc1ccccc1)c1nc2ccccc2s1	-30	108	36	123
64	Cc1ccc(-c2nnc(SCc3cccc(S(=O)(=O)N4CCOCC4)c3)n2N)cc1	-11	97	-4	103
65	COc1ccc(C2SCC(C(=O)O)N2C(C)=O)cc1 (stereo unspecified)	-4	102	-2	105
66	CCn1c(=O)c(-c2c(C)nn(-c3ccccc3)c2C)nc2cc(S(=O)(=O)N(C)C)ccc21	1	102	-103	109
67	CC1(C)c2sc(=O)[nH]c2SC2C(=O)N(CC(=O)N3CCOCC3)C(=O)C21 (stereo unspecified)	-6	99	-4	99
68	CCOC(=O)c1c(N)n(CCNC(=O)c2cc(OC)c(OC)c(OC)c2)c2nc3ccccc3nc12	-30	103	105	103
69	O=C(Nc1ccc(NC(=O)C2CC2)cc1)C1CC1	-7	99	0	104
70	CCOC(=O)Cc1c(C)[nH]c(=O)[nH]c1=O	-1	102	7	97
71	NC(=O)C1Cc2ccccc2CN1C(=O)CSc1nnc(-c2ccco2)n1Cc1ccccc1 (stereo unspecified)	-7	123	14	126
72	Cc1cc(Br)ccc1NC(=O)CC1CCCCC1	x	101	1	103
73	COc1cccc(-n2c(N)cc(=O)nc2SCC(=O)N2CCN(c3ccccc3)CC2)c1	-24	106	17	106
74	NS(=O)(=O)c1ccc(NC(=O)c2cnc3ccccn3c2=O)cc1	0	99	16	102
75	CCc1[nH]c(=S)[nH]c(=O)c1C#N	-6	101	-5	105

Compound profiles, from the list above.
Record of `Cc1ccc(-c2nnc(SCc3cccc(S(=O)(=O)N4CCOCC4)c3)n2N)cc1` = MenB inh: -11; PV pol inh: 97; MbtI inh: -4; PV pol inh intensity: 103
Record of `O=C1COc2cc(S(=O)(=O)N3CCCCCC3)ccc2N1` = MenB inh: -22; PV pol inh: 104; MbtI inh: -3; PV pol inh intensity: 104

Carrying on.
item	SMILES	MenB inh	PV pol inh	MbtI inh	PV pol inh intensity
76	COc1cccn(Cc2nnc(SCc3ccc(Cl)cc3)n2C)c1=O	-14	105	4	104
77	CN(C)S(=O)(=O)c1ccc(NC(=O)c2ccc(=O)n(C)n2)cc1	-6	x	-1	x
78	c1ccc(-c2ccc(N3CCOCC3)s2)cc1	-5	105	1	107
79	Nc1ccc(OCC(O)C[n+]2ccccc2)cc1 (stereo unspecified)	5	101	x	107
80	CCn1c(O)c(/C=N/NS(=O)(=O)c2ccc(C)cc2)c(=O)n(CC)c1=S	-55	99	20	100
81	CCOC(=O)c1ccc(CN)cc1	x	101	-3	102
82	Cc1ccc[n+](C(C)C(=O)c2ccccc2)c1 (stereo unspecified)	13	101	-1	105
83	CC(=O)NCc1ccc(C(=O)COC(=O)CSc2ncnc3sccc23)o1	-2	110	14	118
84	O=C(Nc1ccc(N2CCOCC2)cc1)C1CCCN(C(=O)c2ccc(Cl)cc2)C1 (stereo unspecified)	-2	100	9	98
85	CCn1c(-c2ccc(F)cc2)csc1=Nc1cc(OC)c(Cl)cc1OC	-9	103	x	101
86	CCc1nc2ccccc2nc1CC	10	106	1	108
87	O=C(CSc1nnc(-c2ccccc2)n1-c1ccccc1)N1CCCC1	-6	101	-10	104
88	COc1ccc2cc(C(C)C(=O)Nc3ccc(N4CCN(C)CC4)cc3)ccc2c1 (stereo unspecified)	6	97	16	95
89	Cc1ccccc1NC(=S)N/N=C/c1ccc(O)cc1O	-59	81*	21	82*
90	Clc1nc(CN2CCOCC2)nc2sc3c(c12)CCC3	-4	99	-2	99

3 entries drawn at random from those above:
item	SMILES	MenB inh	PV pol inh	MbtI inh	PV pol inh intensity
90	Clc1nc(CN2CCOCC2)nc2sc3c(c12)CCC3	-4	99	-2	99
81	CCOC(=O)c1ccc(CN)cc1	x	101	-3	102
87	O=C(CSc1nnc(-c2ccccc2)n1-c1ccccc1)N1CCCC1	-6	101	-10	104

Other records.
item	SMILES	MenB inh	PV pol inh	MbtI inh	PV pol inh intensity
91	CCOC(=O)c1ccc(-c2ccc(/C=C3\SC(=S)NC3=O)o2)cc1	0	102	8	105
92	N#CCSc1cn(CC(=O)N2CCCC2)c2ccccc12	-9	99	-2	109
93	Cc1ccc(C(=O)OCC(=O)c2ccccc2)cc1NC(=O)c1ccco1	-15	106	-14	110
94	COc1ccc(OC)c(S(=O)(=O)NC2CC(=O)N(c3ccc(C)c(C)c3)C2)c1 (stereo unspecified)	-30	106	-1	97
95	O=C(Nc1ccc(OC(F)(F)F)cc1)N1CCC(O)CC1	4	108	-1	102
96	O=C(C1CCC1)N1CCc2cc(S(=O)(=O)NC3CCCC3)ccc21	7	101	-4	106
97	O=C(/C=C/c1ccccc1)Nc1ccccc1N1CCCC1	0	99	2	102
98	COc1ccc(Nc2ncc(C#N)c(Nc3ccccc3)c2C#N)cc1	-38	99	-242	102
99	CC(C)C(=O)NC(=S)Nc1ccc(Cl)cc1	-14	100	-3	102
100	CC1=C(C(=O)OC(C)C)C(c2ccc(C(C)C)cc2)C(C#N)=C(N)S1 (stereo unspecified)	7	103	x	107
101	Oc1cc2c(cc1C(Nc1ccccn1)c1ccc3c(c1)OCO3)OCO2 (stereo unspecified)	-9	108	x	110
102	Cc1ccc(C)n1C1CCCCC1	x	103	1	110
103	S=C(Nc1ccc(Cl)cc1Cl)N1CCCC1c1cccs1 (stereo unspecified)	-6	103	0	97
104	O=C(Nc1ccccc1C(F)(F)F)c1cnccn1	8	106	x	107
105	COc1ccc(/C=C(\C#N)C(N)=S)cc1	-56	104	20	96
106	CCN(CC)C(=O)Cn1cc(S(=O)(=O)CC(=O)NC2CCCC2)c2ccccc21	-25	102	-12	107
107	Cc1nnc(N2C(=N)S/C(=C\c3c(-c4ccccc4)n(C)c4ccccc34)C2=O)s1	-5	73	-13	197
108	CCC(C)NC(=O)c1cn(CC)c2ccc(S(=O)(=O)N3CCCCCC3)cc2c1=O (stereo unspecified)	-3	101	19	103
109	S=c1[nH]cnc2sc3c(c12)CCCC3	-147	104	55	106
110	CC(C)N(C(=O)Cn1c(-c2cccnc2)ccc(C#N)c1=O)C(C)C	-21	99	13	101
111	Cc1ccc(NNC(=O)c2cccs2)cc1C	-16	104	5	105
112	CN(CC(=O)NC(=O)Nc1ccc2c(c1)OCCO2)Cc1cccc(F)c1	-42	108	-9	102
113	Cc1ccc(S(=O)(=O)Nc2nc(C)c(NC(=O)NC3C=NN=C3)s2)cc1	-13	100	2	101
114	O=C(O)CSc1c[nH]c2ccccc12	-7	100	-56	102
115	COc1ccc2c(-c3ccccc3)cc(N3CCNC(=O)C3)nc2c1	-13	104	104	105
116	CSc1ncccc1C(=O)NCCc1ccccc1	-16	101	-7	95
